Sa RN4220 lethal – kills Staphylococcus aureus RN4220. inhibition, % (no concentration beside the values). AID 1259311. S. aureus RN4220 growth, OD600, 16 h. 0.33% of 330,000 active;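 active = z-score of -3 or lower and OD600 up to 0.18 on both plates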;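 also: plate controls were untreated cells for no effect and reference antibiotic for full effect; stock transfer was 100 nL into about 80 µL; one replicate is shown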
Mtb hypoxia inh – reduces hypoxia-regulated biosensor signal in M. tuberculosis; 0.1% of 300,000 active; M. tuberculosis hypoxia-regulated fluorescent reporter, fluorescence; fluorescence inhibition, % (concentration not given with the values);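 active = 35 to 45% if threefold the growth effect, above 45% if 1.5-fold the growth effect; inactive = the rest, general growth blockers included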;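 also: wells of about 50 µL received 100 nL stock; 0% = vehicle wells and 100% = reference inhibitor wells; whole bacteria with a GFP reporter of the hypoxia response; strong numbers were not always called active; many hits fall short of the cut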
BJeLR viability – kills HRASV12-expressing BJeLR cells; BJeLR (HRASV12) viability, CellTiter-Glo ATP luminescence, 48 h; reference of the scale not given here; 0.17% of 300,000 active; AID 1554; inhibition, % (concentration not given with the values);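 active = replicate mean above 50%; inconclusive = above 50% but judged a plate artefact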;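 also: 50 nL library stock added to about 25 µL; numbers are from one replicate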
PrP UTR inh – suppresses PrP 5' UTR mRNA reporter expression; cell-based PrP 5' UTR mRNA reporter, plate reader; inhibition, % (test concentration not listed); 0.35% of 340,000 active; AID 488862;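 active = every replicate at 50% or more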;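 also: 0 = median of the neutral control wells; tested in H4 reporter cells; numbers are from one replicate; inactives centre near -14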
Autofluor counter – compound fluorescence in toxin protease inhibitor counterscreen | 3.1% of 360,000 active | fluorescence intensity (test concentration not listed) | compound autofluorescence counterscreen, microsphere flow cytometry; stronger effect = higher value;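 active = at least 3 SD above the mean of all compounds, about 16000 in these data; inconclusive = too few beads counted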;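 also: 100 nL of 1 mM stock went into each well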
Sa ugtP lethal – compounds lethal to S. aureus RN4220 ugtP deletion mutant; 0.54% of 330,000 active; OD600 growth, 16 h; some inactives read as strong as hits; growth inhibition, % (test concentration not listed); AID 1259309;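 active = z-score under -3 and OD600 up to 0.15 on both plates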;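 also: plate controls were untreated wells for no effect and antibiotic for full effect; wells of about 80 µL received 100 nL stock; the first replicate is given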
Mtb hypoxia inh growth – also measured in Mtb hypoxia inh; calls as there; growth inhibition, %; measured here: M. tuberculosis growth (absorbance);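 0% = vehicle and 100% = reference antibiotic; read after six days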
Starred values were filed as active, the others as inactive; ? = inconclusive; · = no result given; & = joins results of further samples.

Screens in order: Sa RN4220 lethal	Mtb hypoxia inh	Mtb hypoxia inh growth	BJeLR viability	PrP UTR inh	Autofluor counter	Sa ugtP lethal
> COc1ccc(S(=O)(=O)Cc2ccc(C(=O)NC3CCCCCC3)o2)cc1
    2.8	6.9	-3.2	-4.7	-1.5	4280	7.1
> COC(=O)C[C@H]1c2cc(C(F)(F)F)ccc2S(=O)(=O)N1Cc1ccc(OC)cc1
    ·	·	·	-1.6	-13.8	3626	·
> O=C(O)C(Cc1c[nH]c2ccccc12)NS(=O)(=O)c1ccccc1 (stereo not drawn)
    4.2	3.8	-0.9	-10.4	-22.1	2695	13.1
> Cc1cc(C)c(S(=O)(=O)N2CCN(C3CC(=O)N(c4ccccc4Cl)C3=O)CC2)c(C)c1 (stereo not drawn)
    1.3	-3.4	1.6	·	-11.2	3412	4.4
> COc1cc(/C=C/C(=O)OCC(=O)NCCc2ccc(F)cc2)ccc1OC(F)F
    -2.2	7.9	12.1	·	-13.9	3696	27.4
> COc1ccc(F)cc1C(=O)C1CCCN(Cc2cnc(N3CCCC3)s2)C1 (stereo not drawn)
    2.9	12.7	2.6	6.6	9.1	3423	-0.6
> O=C(c1nn(-c2ccccc2)c(=O)c2ccccc12)N1CCN(c2ccccn2)CC1
    3.0	3.0	5.0	7.9	-2.7	7561	5.5
> CCC(C)c1ccc(OCCn2cc(C=NNC(=O)CSc3nnc(C)s3)c3ccccc32)cc1 (stereo not drawn)
    3.6	3.1	3.0	·	·	·	-15.3
> COc1cc(NC(=O)COC(=O)C=Cc2c(C)nn(-c3ccc(F)cc3)c2Cl)cc(OC)c1
    4.8	2.2	7.4	·	·	·	-4.4
> Cc1ccc2cc(CCNC(=O)C3CCCCC3)c(=O)[nH]c2c1C
    8.8	6.8	1.4	-4.1	-22.9	6363	11.8
> CCOc1cc(C2C(C(C)=O)=C(O)C(=O)N2CCc2c[nH]c3ccccc23)ccc1O (stereo not drawn)
    -3.5	-25.3	1.6	7.1	-17.6	4589	-8.4
> CC(/C=C/c1ccccc1)=NNC(=O)c1cc([N+](=O)[O-])cc([N+](=O)[O-])c1
    2.3	0.3	13.5	·	·	·	-3.2
> CCOC(=O)C1CCCN(Cc2ccccc2F)C1 (stereo not drawn)
    4.5	7.1	4.6	10.5	·	7488	8.5
> COc1cc(C(=O)OCC(=O)N2CCCC2)cc(OC)c1OC
    -13.1	4.2	1.9	-3.5	-10.8	2876	-5.9
> O=C(CSc1nnc(SCc2ccc(Cl)cc2)s1)N/N=C/c1ccccc1Cl
    ·	·	·	-1.6	-34.0	2445	·
> COc1ccccc1N(C)S(=O)(=O)c1ccc(C(=O)NC2CCCCC2)cc1
    0.9	9.4	9.5	·	-7.7	3436	4.5
> CCOc1ccccc1NC(=O)C1CCN(c2nc(-c3ccc(OC)cc3)no2)CC1
    6.6	-7.3	-2.9	8.9	-36.6	5986	1.4
> COc1ccc2[nH]c(=O)c(CN(Cc3ccco3)C(c3nnnn3Cc3ccccc3)C(C)C)cc2c1 (stereo not drawn)
    3.4	-1.1	0.5	1.7	6.2	9797	-25.9
> CN(CC(=O)Nc1ccc(F)cc1)C(=O)COC(=O)CCN1C(=O)C2CC=CCC2C1=O (stereo not drawn)
    -0.8	5.0	7.8	-3.9	-12.8	5521	3.5
> CCOc1ccccc1N1CCN(C(=O)c2ccc3[nH]c(C)c(C)c3c2)CC1
    5.8	2.8	1.9	32.4	-24.2	5115	-2.6

Screens in order: Sa RN4220 lethal	Mtb hypoxia inh	Mtb hypoxia inh growth	BJeLR viability	PrP UTR inh	Autofluor counter	Sa ugtP lethal
> CC(C)CCNC(=O)c1cccnc1Sc1ccccc1
    -0.2	15.8	10.6	-6.3	-21.0	2593	7.1
> CCCc1nn2c(=O)cc(CSCC(=O)Nc3ccccc3)nc2s1
    0.8	4.4	6.2	-0.4	-18.5	5358	2.7
> COc1ccc2c(c1)CCc1c(C(=O)Nc3ccc(OC)c(OC)c3)noc1-2
    0.8	-2.3	-7.6	1.7	-7.1	20591*	8.9
> COc1ccc(NC(C)=O)cc1S(=O)(=O)N1CCc2ccccc21
    3.2	5.3	2.9	4.5	-2.0	3226	2.8
> Cc1cc(C)c2oc(-c3cccc(N)c3)nc2c1
    6.4	11.8	1.5	-3.8	-61.4	4285	7.1
> CCCn1nnnc1SCC(=O)c1ccc2c(c1)OCCO2
    5.0	·	·	-14.5	-37.4	2760	5.5
> CC1([N+](=O)[O-])COC2(OC1)C(=O)Nc1ccccc12 (stereo not drawn)
    2.5	-2.8	-0.6	10.3	-18.2	3654	-6.6
> CCCCNc1c(-c2ccc(SC(C)CC)c(OC)c2)nc2ccc(Cl)cn12 (stereo not drawn)
    10.8	4.5	16.6	·	0.9	3861	-16.0
> Cc1ccnc2nc(C(=O)Nc3nc(-c4ccccn4)cs3)nn12
    1.6	-17.8	-1.1	-0.1	-0.4	4214	-11.6
> O=C(Cc1ccc([N+](=O)[O-])cc1)NN=Cc1ccccc1F
    3.5	-5.3	4.5	·	·	·	-0.6
> COC(=O)c1c(-c2c(Cl)cccc2Cl)noc1NC(=O)N(C)C
    6.2	18.7	6.5	-1.0	-39.0	5534	3.8
> Cc1cccc(C)c1OCc1cc(C(=O)N(C)Cc2cc(C3CC3)n[nH]2)no1
    1.9	-5.0	-1.9	-5.3	-17.8	4216	0.6
> COCc1cc(C)n(CC(=O)Nc2cc(C)cc(C)c2)c(=O)c1C#N
    -0.9	3.0	4.8	0.3	-6.5	1977	3.4
> COc1ccccc1CNC(=O)COC(=O)Cc1ccc(F)cc1
    5.3	1.3	-10.3	-0.9	-14.6	4400	16.7
> Cc1ccc(S(=O)(=O)/N=C(/Nc2c(C)n(C)n(-c3ccccc3)c2=O)c2ccccc2)cc1
    2.9	2.8	3.3	-5.3	-9.8	7742	21.3
> CCOC(=O)N1CCN(C(=O)CS(=O)(=O)c2cn(Cc3ccccc3Cl)c3ccccc23)CC1
    15.5	5.2	7.1	10.0	-21.8	5860	16.0
> S=C(NCCc1ccccc1)N1CCN(C23CC4CC(CC(C4)C2)C3)CC1
    -0.4	0.8	5.0	-0.4	-15.7	3594	4.5
> N#CC1(NC(=O)COC(=O)c2cc(=O)[nH]c3ccccc23)CCCCC1
    ·	·	·	-7.0	-1.1	5351	·
> O=C(CCC1CCN(C(=O)c2cncs2)CC1)Nc1ccccc1
    2.2	7.7	-2.1	3.6	-3.5	4785	4.6
> CC1CN(C(C)CO)C(=O)c2cc(NC(=O)Nc3ccc(C(F)(F)F)cc3)ccc2OC1CN(C)S(=O)(=O)c1cccs1 (stereo not drawn)
    -2.0	9.7	5.4	·	·	·	-38.8

An excerpt of these results, as labelled records.
COc1ccc(NC(C)=O)cc1S(=O)(=O)N1CCc2ccccc21
  Sa RN4220 lethal = 3.2 | Mtb hypoxia inh = 5.3 | Mtb hypoxia inh growth = 2.9 | BJeLR viability = 4.5 | PrP UTR inh = -2.0 | Autofluor counter = 3226 | Sa ugtP lethal = 2.8

Cc1cc(C)c2oc(-c3cccc(N)c3)nc2c1
  Sa RN4220 lethal = 6.4 | Mtb hypoxia inh = 11.8 | Mtb hypoxia inh growth = 1.5 | BJeLR viability = -3.8 | PrP UTR inh = -61.4 | Autofluor counter = 4285 | Sa ugtP lethal = 7.1

CCCn1nnnc1SCC(=O)c1ccc2c(c1)OCCO2
  Sa RN4220 lethal = 5.0 | Mtb hypoxia inh = · | Mtb hypoxia inh growth = · | BJeLR viability = -14.5 | PrP UTR inh = -37.4 | Autofluor counter = 2760 | Sa ugtP lethal = 5.5

New compounds follow
Screens in order: Sa RN4220 lethal	Mtb hypoxia inh	Mtb hypoxia inh growth	BJeLR viability	PrP UTR inh	Autofluor counter	Sa ugtP lethal
> N#Cc1ccc(/C=N/NC(=S)Nc2ccc(S(=O)(=O)N3CCOCC3)cc2)cc1
    ·	·	·	-7.9	-5.1	4309	·
> COc1cc(C(=O)NCC2CCCO2)cc(Br)c1OCc1ccccc1 (stereo not drawn)
    0.1	2.0	1.1	·	-11.0	4243	20.9
> CCCN1CCc2c(sc(NC(=O)c3ccc(S(=O)(=O)N(C)c4ccccc4)cc3)c2C(N)=O)C1
    2.5	3.3	10.8	4.2	-19.5	6369	-0.2
> CCOC(=O)Cc1cc(-c2ccc(F)cc2)nc2ccc3ccccc3c12
    1.2	14.0	3.9	0.0	-18.3	2169	-1.6
> COc1ccc(CCNC(=O)CC2SC(=NCc3ccccc3)NC2=O)cc1 (stereo not drawn)
    6.1	7.8	-7.4	1.0	-17.7	2466	9.1
> Cc1cc(C)c2c(c1)OC(O)(C(F)F)CC2=O (stereo not drawn)
    7.6	10.7	8.8	-6.5	-15.6	8154	2.2
> Cc1ccc(OCC(=O)NCCNC(=O)c2ccco2)cc1
    5.2	-6.5	7.1	-0.7	-11.8	3922	2.5
> CCOc1ccc(Nc2cc(C)nc(N3CCOCC3)n2)cc1
    -12.5	10.4	18.8	10.9	-7.6	3580	2.0
> O=C(NCCN1CCN(C(=O)c2c(F)cccc2F)CC1)C(=O)Nc1ccc(Cl)cc1
    2.9	11.0	-11.7	-11.0	-17.8	5137	10.7
> COc1ccc(C2NS(=O)(=O)N=C2N)cc1 (stereo not drawn)
    2.6	-0.1	6.9	-1.4	-2.3	3880	0.3
> O=C(CC1Nc2ccccc2NC1=O)NCCc1ccccc1 (stereo not drawn)
    -1.7	5.2	7.6	-11.3	-20.7	4589	-5.8
> Cc1cc(NC(=O)C(C)SCC(=O)O)no1 (stereo not drawn)
    2.6	1.9	1.5	9.8	-4.7	3215	10.7
> COc1cc(C=NO)ccc1Oc1ccc([N+](=O)[O-])cc1[N+](=O)[O-]
    4.8	5.7	14.7	·	·	·	11.1
> Cc1ccc(O)c(NC(=S)NC(=O)Cc2ccc(Cl)cc2)c1
    -3.0	-9.7	-1.0	-10.3	-31.3	4213	-13.4
> O=C(Cc1ccc(S(=O)(=O)N2CCOCC2)s1)Nc1ccc(Br)c(C(F)(F)F)c1
    5.6	-4.2	6.9	·	-36.3	5685	-13.9
> COc1ccc(C2(C)NC(=O)N(CC(=O)NC3CC3)C2=O)cc1 (stereo not drawn)
    4.7	4.0	5.2	·	-17.8	3813	-0.5
> CC(C)(C)CC(C)(C)N=C1NS(=O)(=O)c2cc([N+](=O)[O-])ccc21
    -2.5	-6.2	4.9	4.7	-13.4	4461	-0.3
> C[C@]1(C2CCCC2)Cc2cc(OCC(=O)O)c(Cl)c(Cl)c2C1=O
    9.3	-4.4	-3.4	1.6	-15.7	6351	9.5
> Clc1cncc(Cl)c1NN=Cc1ccncc1
    8.7	0.2	3.3	·	·	·	1.7
> Cc1nn(Cc2ccccc2)c(C)c1NC(=O)c1ccc([N+](=O)[O-])cc1[N+](=O)[O-]
    -1.0	-0.9	9.3	3.6	-19.5	7674	13.6

Structures listed so far with an aryl thioether with sulfur outside any ring (five):
Screens in order: Sa RN4220 lethal	Mtb hypoxia inh	Mtb hypoxia inh growth	BJeLR viability	PrP UTR inh	Autofluor counter	Sa ugtP lethal
> CCC(C)c1ccc(OCCn2cc(C=NNC(=O)CSc3nnc(C)s3)c3ccccc32)cc1 (stereo not drawn)
    3.6	3.1	3.0	·	·	·	-15.3
> O=C(CSc1nnc(SCc2ccc(Cl)cc2)s1)N/N=C/c1ccccc1Cl
    ·	·	·	-1.6	-34.0	2445	·
> CC(C)CCNC(=O)c1cccnc1Sc1ccccc1
    -0.2	15.8	10.6	-6.3	-21.0	2593	7.1
> CCCn1nnnc1SCC(=O)c1ccc2c(c1)OCCO2
    5.0	·	·	-14.5	-37.4	2760	5.5
> CCCCNc1c(-c2ccc(SC(C)CC)c(OC)c2)nc2ccc(Cl)cn12 (stereo not drawn)
    10.8	4.5	16.6	·	0.9	3861	-16.0

Following part:
Screens in order: Sa RN4220 lethal	Mtb hypoxia inh	Mtb hypoxia inh growth	BJeLR viability	PrP UTR inh	Autofluor counter	Sa ugtP lethal
> CN(/C(=N/S(=O)(=O)c1ccccc1)c1ccccc1)S(=O)(=O)c1ccccc1
    ·	·	·	2.9	-17.2	8307	·
> CN=C1SC(CC(=O)NCCc2ccc(OC)c(OC)c2)C(=O)N1C (stereo not drawn)
    2.5&-1.5	3.2	4.7	-2.6	-19.1&-18.8	?	-0.2&-1.3
> COc1ccc(-n2nc(C(=O)NCC(=O)N3CCC(C)CC3)c3ccccc3c2=O)cc1
    0.6	3.8	2.0	-5.3	-34.0	5735	6.6
> CC(C)(C)c1ccc(C(=O)C=[N+]=[N-])cc1
    13.6	·	·	·	5.8	4953	-1.5
